S aureus helic: inhibitors of S. aureus replicative helicase, primary screen, biochemical, fluorescence unwinding readout; purified S. aureus helicase, fluorescence unwinding assay; about half of the hits fall short of the stated cut; inhibition, %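 (tested at about 80 µM)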; 0.05% of 120,000 active;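 active means both duplicates at 50% or more, or one of them with a favoured structure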;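 further: 0% = mean of negative control wells and 100% = mean of positive control wells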
MgrA-DNA mod: S. aureus MgrA activity modulators, primary screen, biochemical, S. aureus Newman, fluorescence polarization | MgrA-DNA binding | inhibition, %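 (about 10 µg/mL by stock and volumes)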 | 0.13% of 84,000 active;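 active means above 50% in either of two replicates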;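 further: 0% = protein plus DNA without compound and 100% = DNA alone without protein; higher means less MgrA bound to DNA so lower polarization; one replicate is shown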
* hit, by the source's call; x = not tested or not shown; & = joins results of further samples. The list is partial; count on the stated rates, not on these rows.

molecule | S aureus helic | MgrA-DNA mod
O=C(c1ccc(Cl)cc1)N1CCc2sccc2C1c1ccc(Cl)cc1 (configuration not stated) | x | 0.7
CCCc1cc(C(=O)O)n[nH]1 | -12.0 | -4.7
O=C(Nc1ccc2c(c1)nc1n2CCCCC1)c1ccccc1NS(=O)(=O)c1cccs1 | -12.0 | x
O=C(Nc1ccc2c(c1)oc1ccccc12)C1CCCO1 (configuration not stated) | -5.0 | 0.6
O=C1CCN(S(=O)(=O)c2ccc(Br)cc2)CCN1 | 8.0 | x
CCCOc1cccc2ccccc12 | x | -0.4
Cc1nn(-c2ccccc2)c(C)c1C(O)c1nnc(-c2ccccc2)o1 (configuration not stated) | -10.0 | x
NC(=O)N[C@@H]1O[C@H](CO)[C@@H](O)[C@H](O)[C@H]1O | x | 3.1
Cc1ccnc(NC(=O)CCCOc2ccc(Cl)cc2Cl)c1 | -2.0 | 0.0
O=C(Cn1nc(C(F)F)cc1C1CC1)NCCC1=CCCCC1 | -4.0 | -1.2
CN(C(=O)Cn1c(=O)n(-c2ccccc2)c(=O)c2c3c(sc21)CCC3)c1ccccc1 | 2.0 | x
Cc1nn(-c2ccccc2)nc1C(=O)Oc1cncc(Cl)c1 | 9.0 | x
FC(F)(F)c1cc(-c2cccs2)nc2c1cnn2Cc1cccnc1 | -2.0 | x
O=C(O)c1cccc(-n2cccc2C=NO)c1 | 23.0 | x
CC(C)(C)Sc1ccc(C(=O)O)s1 | 8.0 | x
COc1ccc(C(=O)COc2ccccc2C(N)=O)cc1 | x | -3.7
C#CCN1C(=O)C(O)(CC(=O)c2ccccc2)c2ccccc21 (configuration not stated) | 9.0 | -0.1
COc1cc(S(=O)(=O)N2CCN(Cc3ccccc3)CC2)c(OC)cc1Cl | 18.0 | x
CCN(CC)C(=O)Nc1c(C)cc(C)cc1C | 17.0 | -2.3
N=C(N)N=Nc1c(O)[nH]c2ccccc12 | 8.0 | x
CCn1cc(-c2ccccc2)c(C(=O)O)c1C | 5.0 | -1.7
COc1ccc(C2CC(=O)C3=C(C2)Nc2ccccc2NC3c2cc(OC)c(OC)cc2Br)cc1 (configuration not stated) | x | -1.4
CCc1ccc2nc(SCC(=O)N3CC(=O)Nc4ccccc43)c(C#N)cc2c1 | -18.0 | 2.0
CN(Cc1ccccc1)C(=O)COC(=O)c1ccccc1O | 5.0 | -2.1
NC(=S)N1CCCC1 | 70.0 | x
Cc1cccc(Oc2ccc(NC(=O)C3CCC(C)CC3)cc2)c1 (configuration not stated) | 18.0 | 1.1
O=C(COc1ccccc1)Nc1ccc(I)cc1 | -11.0 | 1.4
Cc1ccc(N=Cc2ccc(F)cc2)c(C)c1 | -8.0 | -1.9
COC(=O)c1c(NC(=O)CSc2nnc(-c3cccnc3)n2C)sc2c1CCC2 | 3.0 | 0.6
CCN1CCN(C(c2cccs2)C(C)NC(=O)C(C)C)CC1 (configuration not stated) | 14.0 | -0.6
O=C1CCCC2=C1C(c1cccnc1)c1c(ccc3ncccc13)N2 (configuration not stated) | 2.0 | x
NS(=O)(=O)c1ccc(CCN2CC3=C(C2=O)C(c2ccccc2)NC(=O)N3)cc1 (configuration not stated) | 2.0 | x
Cn1nc(C(C)(C)C)cc1C(=O)NN1CCOCC1 | x | -0.1
CCN(CC)CCNc1nc2c(c(=O)n(C)c(=O)n2C)n1Cc1ccc(Br)cc1 | x | 2.0
CS(=O)(=O)Nc1ccc(C(=O)N2CCCCC2)cc1 | 10.0 | 0.5
C(=NCc1cccnc1)c1ccc2c(c1)OCO2 | -14.0 | x
CCCCCCCCNC(C)C(O)c1ccc(SC(C)C)cc1 (configuration not stated) | x | 2.0&1.1
Nc1nc(NS(=O)(=O)c2ccccc2)ns1 | 20.0 | x
N#Cc1cnn(-c2ccccc2)c1N | -15.0 | -0.3
O=S(=O)(CCN1C=CC(C(F)(F)F)=NCC1)c1ccc(F)cc1 | x | 1.0
Cc1nc(N2CCN(C(=O)c3ccco3)CC2)c2c3c(sc2n1)CC(C(C)(C)C)CC3 (configuration not stated) | 0.0 | 3.5
S=C(NCCc1ccncc1)NC1CCCCC1 | 14.0 | 0.0
COC1C(OC)N(S(C)(=O)=O)CCN1S(C)(=O)=O (configuration not stated) | 0.0 | 0.4
C=CCn1c(-c2ccc(OC)c(OC)c2)cs/c1=N\c1ccccn1 | 13.0 | x
COc1ccc(S(=O)(=O)NCC(c2cccnc2)N2CCN(C)CC2)cc1OC (configuration not stated) | 4.0 | x
CCOC(=O)c1c(-c2ccccc2)oc2c1cc(OC(=O)c1ccc(OCC)cc1)c1ccccc12 | x | 1.4
Cc1ccccc1C(=O)Nc1cccc(N(C)C)c1 | 17.0 | -0.5
CCOC(=O)c1c(N)sc(C)c1C | -19.0 | x
CC/C(=N\OC(=O)CC12CC3CC(CC(C3)C1)C2)c1ccc(-c2ccccc2F)cc1 | x | -2.5
Cc1c(C(=O)NCCCN2CCCCCC2)oc2ccc3nc(N(C)C)sc3c12 | 32.0 | 4.7
Cn1cc(CCC(=O)NCCCN2CCC(N3CCCCC3)CC2)c2ccccc21 | 25.0 | x
COc1cc(/C=C2\SC(=S)N(CC(=O)Nc3ccccc3C(=O)O)C2=O)cc(OC)c1OC | x | -2.0
CCc1ccc(NC(=O)N(CCC(C)C)C(C)c2ccco2)cc1 (configuration not stated) | -12.0 | x
CCNc1nc(-c2ccc(C)cc2)cs1 | 33.0 | x
COc1ccc(NC(=O)CCc2nc3ccc(C)cc3[nH]2)c(OC)c1 | 4.0 | -1.9
COC(=O)c1sc(N)c(C(=O)OC)c1CN1CCOCC1 | -2.0 | x
CCCC(=O)Nc1cccn(Cc2cccc(OC)c2)c1=O | -6.0 | 1.4
Cc1cc(C(=O)N2CCCc3ccccc32)no1 | 19.0 | x
CC1(C)CC(=O)CC(=NCC(=O)O)C1 | 5.0 | -6.0
COc1cccc(NC(=O)CSc2nnc3ccccn23)c1 | 26.0 | x

Continuation.
molecule | S aureus helic | MgrA-DNA mod
O=C(CSc1nc(-c2ccccc2)cc(=O)[nH]1)NCC1CCCO1 (configuration not stated) | 28.0 | -0.2
COc1ccc(C(=O)COC(=O)c2ccc(N)cc2)cc1 | 19.0 | 4.5
O=S(=O)(NCCCc1ccccc1)c1cccc2nsnc12 | 0.0 | x
COCC(C)NCc1cccc(OC)c1 (configuration not stated) | 10.0 | 3.5
O=S(=O)(c1cccs1)N1CCN(c2cccc(C(F)(F)F)c2)CC1 | 10.0 | x
O=C(NCCCN1CCOCC1)c1nn2c(c1Cl)NC(c1ccc(Cl)cc1)CC2C(F)(F)F (configuration not stated) | x | -0.5
O=C(Nc1nn2cnnc2s1)C1CCCC1 | -17.0 | x
CC(C)N(Cc1ccccc1)S(=O)(=O)N(C)C | -2.0 | 0.9
CCc1ccc(OCC(O)CN)cc1 (configuration not stated) | -2.0 | 2.5
CCOC(=O)c1c(O)c(O)c(C(=O)OCC)n1-c1ccc(OC)cc1 | x | 17.1
Cc1oc(S(=O)(=O)N2CCCC2)cc1C(=O)NCCN1CCNC1=O | x | -0.1
CCSc1nnc(-c2ccccc2)n1Cc1ccc2c(c1)OCO2 | -14.0 | x
O=S(=O)(c1ccc(Cl)cc1)c1cnn(S(=O)(=O)c2ccccc2)c1-c1ccc(Cl)cc1 | x | -8.9
O=C(COc1ncnc2ccccc12)Nc1ccccc1 | -7.0 | -1.6
COc1ccc(N2CCN(C=C3C(=O)N(C)C(=O)N(C)C3=O)CC2)cc1 | 8.0 | x
CCOC(=O)c1c(C)n(-c2ccccc2)c2c1cc(OC(=O)c1ccc(C)cc1)c1ccccc12 | x | -1.1
Cc1nnc(SCCNS(=O)(=O)c2ccccc2)s1 | -1.0 | 8.3
Cc1n[nH]c(C)c1-c1nc2ccccc2[nH]1 | -3.0 | x
Cc1ccc(C)c(N2CCN(CCCNC(=O)c3cn4c5c(ccc(Cl)c5c3=O)OC(C)C4)CC2)c1 (configuration not stated) | 7.0 | x
Cc1c(NC2=CC(=O)CCC2)c(=O)n(-c2ccccc2)n1C | -5.0 | 1.2
CCN(CC)C(=O)CSc1nc2nc(C)cc(C)c2c(=O)[nH]1 | 2.0 | -1.4
O=C(NCCCn1ccnc1)C1CCN(S(=O)(=O)c2ccc(F)cc2)CC1 | -2.0 | -3.6
Cc1cc2nnc(SCC(N)=O)n2c2ccccc12 | -15.0 | -1.8
CCCCn1cnc2c(c1=O)c1nc3ccccc3nc1n2CCc1ccc(OC)cc1 | 5.0 | -2.4
Oc1oc(-c2cccs2)nc1/C=C1\C=Nc2ccccc21 | -8.0 | -0.3
CC(OC(=O)C1CCCN1S(=O)(=O)c1ccc(Cl)cc1)C(=O)Nc1ccc(C(N)=O)cc1 (configuration not stated) | 7.0 | x
Cc1[nH]nc(CSSCc2n[nH]c(C)c2C(=O)NN)c1C(=O)NN | 13.0 | -1.1
CCOC(=O)c1oc2nc(-c3ccccc3)cc(-c3ccco3)c2c1N | -76.0 | x
OCC1CCCN1CC1CC1 (configuration not stated) | 12.0 | -1.1
COc1ccc2o/c(=N\c3sc4c(c3C(N)=O)CCCC4)c(C(N)=O)cc2c1 | x | 0.7
CC(=O)Nc1ccc2nc(NC(=O)c3ccc(C#N)cc3)sc2c1 | 10.0 | x
CCCCN(CC)S(=O)(=O)c1ccc2c(c1)CCN2C(C)=O | 21.0 | x
c1ccc(-c2cc(N3CCCCC3)c3ccccc3n2)nc1 | x | -2.5
COc1ccc(-n2c(C)cc(-c3csc(/N=C/N(C)C)n3)c2C)cc1 | 9.0 | x
CN(C)c1ccc(C(C(=O)NCc2ccccc2)N(Cc2ccco2)C(=O)c2snc(C(N)=O)c2N)cc1 (configuration not stated) | -9.0 | 1.9
COc1cc(-c2noc(-c3nnn(-c4cccc(Cl)c4C)c3C)n2)cc(OC)c1OC | 7.0 | x
COC(=O)C1C(=O)C2=C(CC1C)Nc1ccccc1NC2c1cccc(Br)c1 (configuration not stated) | 11.0 | 3.6
O=C(COC(=O)CSc1ccc2ccccc2c1)NC1CC1 | 5.0 | -0.4
c1ccc(CN2CCC(NN3CCOCC3)CC2)cc1 | -4.0 | -0.1
O=C1CSc2ccc(C(=O)NCCCn3ccnc3)cc2N1 | -7.0 | x
Cc1cc(C)c2nc(C(F)(F)F)nc(NCc3ccc4c(c3)OCO4)c2c1 | -9.0 | 2.0
Cc1cc(-n2c(C)cc(CNC3CC(C)(C)NC(C)(C)C3)c2C)no1 | 2.0 | x
Cc1cccc(NC(=O)CNC(=O)OCc2ccccc2)c1 | 14.0 | -6.0
COc1ccc(CCNC(=O)c2cccs2)cc1OC | x | -1.0
COc1ccccc1NC(=O)c1ccc(-c2csnn2)cc1 | x | -3.3
CN(C(=O)c1cccc(N)c1)c1ccccc1 | 8.0 | x
Cc1cccc(C)c1Nc1n[nH]c(=S)s1 | x | 9.7
COC(=O)NCCOc1cc(C)ccc1C | 6.0 | -1.1
CCOC(=O)c1oc2ccccc2c1CSc1nnc(-c2ccc(C)cc2)n1N | -7.0 | x
CC(C)=NOCC(=O)Nc1ccccc1C | 7.0 | 0.9
C=CCn1c(COc2ccc(OC)cc2)nc2ccccc21 | 11.0 | x
O=C(Oc1cc(=O)oc2ccccc12)c1ccco1 | -4.0 | x
CC(C)c1ccc(-c2noc(C3CCCN(C(=O)Cc4cccs4)C3)n2)cc1 (configuration not stated) | 3.0 | -0.7
CSc1ncc(Cl)c(C(=O)Nc2cccnc2)n1 | -15.0 | x
CC1=C(C(=O)OCC2CCCO2)C(c2ccccc2OCc2ccccc2)NC(=O)N1 (configuration not stated) | x | 0.8
CS(=O)(=O)N1CCN(CC(=O)NC2CCCCC2)CC1 | 3.0 | -4.2
COc1ccc(CC(=O)N2CCCC2)cc1 | -6.0 | 2.2
CCOC(=O)CN1CCN(c2ccc(C(F)(F)F)cc2N)CC1 | x | -0.8
Cc1nnsc1-c1nc2ccccc2[nH]1 | -5.0 | -1.5
NC(=O)c1sc2ccccc2c1Cl | x | 0.0

New compounds follow
molecule | S aureus helic | MgrA-DNA mod
CSc1ccccc1N1CC(C(=O)O)CC1=O (configuration not stated) | x | -1.7
Nc1ccc(C(=O)O)cn1 | -1.0 | x
CC1(C)NNC(=S)NC1=O | 3.0 | x
CN1CCN(P(=O)(c2ccccc2)c2nc3ccccc3s2)CC1 (configuration not stated) | 3.0 | x
O=C(CSc1nc2ccccc2c(=O)[nH]1)c1ccc2c(c1)OCCO2 | -3.0 | x
O=C(NCCn1cc(SCC(=O)N2CCOCC2)c2ccccc21)c1ccccc1 | 13.0 | x
CCOC(=O)c1cnc2c(CC)cccc2c1NCCO | 6.0 | 0.3
CCn1cc(-c2csc(N)n2)c(C)n1 | 6.0 | -0.9
CC(=O)N/C(=C\c1ccccc1)C(=O)Nc1cc(C)cc(C)c1 | 0.0 | x
CCSc1ncc(Cl)c(C(=O)N2CCN(c3cccc(Cl)c3)CC2)n1 | -9.0 | x
Cc1ccc(CNC(=O)CCc2c(C)nn3cnnc3c2C)cc1 | 11.0 | x
Cc1c2cnn(-c3ccccc3)c(=O)c2c(C)n1CC(=O)N1CCCCC1 | -27.0 | x
CCOC(=O)C1=C(C)SC2=NS(=O)(=O)CCN21 | 13.0 | x
CCSc1nc2c(cnn2-c2ccc(Cl)cc2)c(=O)[nH]1 | -29.0 | x
Cc1ccc(N=C(N)c2ccccc2)cc1 | x | 0.3
N#Cc1c(F)cccc1NCc1cccs1 | x | 0.8
c1ccc(-c2cccc(-c3ccccn3)n2)nc1 | 12.0 | 1.8
CC(C)N(C(=O)CSCc1nc2ccccc2[nH]1)c1ccccc1 | -5.0 | 0.8

Part of the list above in a different format:
Order of results: S aureus helic	MgrA-DNA mod
> c1ccc(-c2cccc(-c3ccccn3)n2)nc1
  12.0	1.8
> CC(C)N(C(=O)CSCc1nc2ccccc2[nH]1)c1ccccc1
  -5.0	0.8

Assay outcomes: PubChem, ICCB-Longwood Screening Facility, Harvard Medical School
